# D2 PAM = Beta-Arrestin HTS for Positive Allosteric Modulators of the Human D2 Dopamine Receptor: Potentiators | D(2) dopamine receptor (Homo sapiens), P14416 | 360,000 tested, 0.23% active | potentiation, % (test concentration not listed) | DiscoveRx D2 beta-arrestin cells, luminescence, 90 min; 100% = 57 uM dopamine signal | AID 624464, 2012; active = potentiation of 50% or more; inconclusive = 30% to 50%; inactive = 30% or less;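 note: compound concentration not given in the record; tested on top of an EC20 dose of dopamine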
# Target sequence (P14416 whole entry, looked up): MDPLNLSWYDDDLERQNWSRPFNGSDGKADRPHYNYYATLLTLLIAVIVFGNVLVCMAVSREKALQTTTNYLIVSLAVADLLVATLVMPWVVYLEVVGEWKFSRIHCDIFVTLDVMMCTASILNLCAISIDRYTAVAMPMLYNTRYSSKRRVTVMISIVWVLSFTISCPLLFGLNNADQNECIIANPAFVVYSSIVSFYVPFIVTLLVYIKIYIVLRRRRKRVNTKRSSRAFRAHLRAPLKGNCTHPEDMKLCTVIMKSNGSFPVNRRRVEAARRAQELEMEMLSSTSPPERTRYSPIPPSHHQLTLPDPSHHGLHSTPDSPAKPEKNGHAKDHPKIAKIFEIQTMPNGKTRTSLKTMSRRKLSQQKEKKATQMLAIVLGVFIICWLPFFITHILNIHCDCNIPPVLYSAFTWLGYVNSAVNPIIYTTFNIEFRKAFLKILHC
#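 D2 cells co-treated with compound plus 50 nM dopamine (EC20) for 90 min at 37 deg C to detect potentiation. Beta-arrestin recruitment was read as enzyme-fragment luminescence after 1 h at ambient temperature. Full response was set by 57 uM dopamine.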
# gsp antag = qHTS for Antagonists of gsp, the Etiologic Mutation Responsible for Fibrous Dysplasia/McCune-Albright Syndrome: qHTS | gsp-mutant cells, cAMP HTRF, 30 min; control for the full effect not named in the record | Potency, µM (doses to about 76.9 µM), for the others: at the highest dose activity change, negative = inhibition, most hits filed as inhibitors | 340,000 tested, 0.4% active | AID 624288, 2012; active = falling curve of any shape with a large fitted effect; inconclusive = falling curve, mostly with a smaller effect; inactive = flat or rising curve; cell line not stated here;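 note: intracellular cAMP measured with PDE inhibitor Ro 20-1724 present during compound exposure; potency is the fitted concentration of half-maximal effect; % is set by controls: 0 for no effect and ±100 for the full control effect; nearly all actives have a fitted effect of over 65% in size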
#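 HTRF cAMP read-out (cAMP-d2 plus anti-cAMP antibody-K in lysis buffer, 30 min RT). Before lysis, cells are exposed to compounds with […] for 30 min at 37C in DPBS containing Ca/Mg, BSA and Tween 20.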
# CtBP-E1A blk = qHTS Assay for Inhibitors of the CtBP/E1A Interaction; AlphaScreen GST-E1A/His-CtBP binding, 1536-well; active compounds read low; control for the full effect not named in the record; activity change, % (concentration not given with the values); 340,000 tested, 0.49% active; CtBP / adenovirus E1A interaction (AlphaScreen); AID 651724, 2012; in the data active means activity change below about -65%; inconclusive means about -30% to -65%; inactive means above about -30%; note: % is set by controls: 0 for no effect and ±100 for the full control effect
#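 Protein mix (5X: 125 nM each GST-E1A, His-CtBP) was incubated with pinned compound 2 h at 37 deg C in dark, in 50 mM Tris pH 8.0 buffer with 300 mM NaCl. Glutathione donor and nickel acceptor beads followed; AlphaScreen signal read after 1 h.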
# Six1-Eya2 blk = qHTS Assay for Inhibitors of the Six1/Eya2 Interaction. Homeobox protein SIX1 (Homo sapiens) + Protein phosphatase EYA2 (Homo sapiens), …. AlphaScreen GST-Six1/His-Eya2 binding, biochemical; active compounds read low; control for the full effect not named in the record. AID 651725, 2012. 360,000 tested, 0.56% active. activity change, % (test concentration not listed); in the data active = activity change below about -65%; inconclusive = about -30% to -65%; inactive = above about -30%; note: % is set by controls: 0 for no effect and ±100 for the full control effect
#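 Compounds are tested against tagged Six1 and Eya2 proteins bridged by glutathione donor and nickel acceptor beads; after a one-hour incubation at 37 °C without light, AlphaScreen emission is recorded.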
# D2 ag = Beta-Arrestin HTS for Positive Allosteric Modulators of the Human D2 Dopamine Receptor: Agonists | DiscoveRx PathHunter D2 beta-arrestin, luminescence, 90 min; 100% = 57 uM dopamine signal | activation, % (no concentration beside the values) | 360,000 tested, 0.084% active; in the data active = activation above about 40%; inconclusive = about 15% to 40%; inactive = below about 15%; note: compound concentration not given in the record; the text of the record calls up to 30% inactive
#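 Agonist mode: compounds alone added to overnight-plated D2 PathHunter cells for 90 min at 37 C, with 57 uM final dopamine (EC100) defining full response. Beta-arrestin recruitment detected by chemiluminescent reagent, read after 1 h at ambient temperature.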
# gsp ag = qHTS for Agonist of gsp, the Etiologic Mutation Responsible for Fibrous Dysplasia/McCune-Albright Syndrome: qHTS. Potency, µM (series often up to 76.9 µM), inactives show at the top dose activation (cAMP increase), actives largely listed as activators. AID 624287, 2012. gsp mutant cells, cAMP HTRF, 30 min; control for the full effect not named in the record. 340,000 tested, 0.13% active; active = well fitted activation curve with a large enough effect; inconclusive = small, poorly fitted or top-dose-only effect, or another doubt; inactive = no such curve, though single readings can be large or run the other way; cell line not stated here;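 note: phosphodiesterase inhibitor Ro 20-1724 added with compounds to block cAMP breakdown; potency is the fitted concentration of half-maximal effect; nearly all actives have a fitted effect of over 60% in size; about a fifth of the inactives were tested at one dose only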
#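 Cells in DMEM/10% FBS with G418 were pretreated with compounds in DMSO plus […] (300 uM stock) for 30 min at 37C. cAMP was measured by HTRF (cAMP-d2 plus anti-cAMP antibody-K) after 30 min at room temperature.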
# Numbers without * were called inactive; u = inconclusive; x = not tested or not shown; [ ] = remark or other dose. Not all compounds are listed; the hit share may differ from the screen's.
SMILES,D2 PAM,gsp antag,CtBP-E1A blk,Six1-Eya2 blk,D2 ag,gsp ag
CC1N(O)C2CCCCCC2N1O (centres undefined),-22.3,-4.2%[15.4 µM],9.5,4.4,-1.7,u
COc1ccc(C2=NCc3nnc(C)n3-c3ccc(Cl)cc32)cc1Cl,-21.1,-22.0%,-0.9,-2.2,-2.1,-20.9%
Cn1cc(/C=C2\C(=O)NC(=O)N(c3ccccc3)C2=O)c2ccccc21,-5.8,-1.9%,-13.4,15.7,-1.7,u
CC(=NCCCn1ccnc1)c1c(O)n(C2CCCCC2)c(=O)[nH]c1=O,-2.8,-6.4%,x,-2.1,-11.5,-4.4%
CCN(CCNc1ccc([N+](=O)[O-])c2cccnc12)S(=O)(=O)c1ccc(Cl)cc1,-10.1,-1.9%,-16.8,-15.8,-4.3,-47.2%[inhibitor]
CCOC(=O)c1c(C)[nH]c(C(=O)C(Cc2ccccc2)N(C)C)c1C (centres undefined),-28.1,6.0%,-1.5,-5.4,-1.3,-2.4%
CCCCn1c(=O)c(C(=O)Nc2ccccc2Cl)c(O)c2ccccc21,-5.7,-6.0%,-7.5,0.1,-1.5,u
O=C(c1ccc2c(c1)OCO2)C1CCCN(Cc2ccc(F)c(F)c2)C1 (centres undefined),-41.1,-11.4%,-1.8,0.7,3.1,-8.1%
CCc1ccc(-n2c(O)c(/C=N/NC(=O)c3ccncc3)c(=O)[nH]c2=O)cc1,15.0,4.3%,u,u,5.7,-49.6%[inhibitor]
O=C(CN1C(=O)C2(OCCO2)c2ccccc21)c1ccc(F)cc1,-11.0,-9.4%,-4.0,0.1,-3.0,4.5%
CSCCC(N=Cc1c(O)n(-c2ccc(Cl)cc2)c(=O)[nH]c1=O)C(=O)OC(C)(C)C (centres undefined),-3.6,4.9%,-1.1,2.1,-0.8,u
COc1ccc(OC)c(C(O)C(C)N)c1 (centres undefined),-6.5,-0.7%,-1.2,1.5,0.7,x
NC(=O)c1ccc(OCCC(O)N2CC=C(c3ccc(F)cc3)CC2)cc1 (centres undefined),-25.7,-4.4%,-25.5,4.9,-1.0,x
ON1C2CCCCC2N(O)C1c1ccccc1 (centres undefined),-13.6,1.9%,6.1,2.1,-3.7,-5.8%
CC(=O)Nc1ccccc1C(=O)OCC(=O)c1cccc2ccccc12,-7.6,u,4.9,-1.0,-4.1,-15.1%
Cc1cccc(N2C(=O)/C(=C/N3CCN(C(=O)c4ccco4)CC3)C(=O)NC2=S)c1,-5.1,3.3%,4.0,3.9,4.0,-20.0%
O=C(Nc1ccc(C(F)(F)F)cc1)OC1CN2CCC1CC2 (centres undefined),-12.7,17.9%,8.0,-1.1,-0.1,-5.3%[15.4 µM]
COC(=O)c1nc(-c2ccc3c(n2)C(=O)C(N)=C(OC)C3=O)c(N)c(-c2ccc(OC)c(OC)c2O)c1C,3.8,-8.1%,-19.4,11.6,x,5.5%[15.4 µM]
O=c1[nH]c(=S)n(-c2ccc(Cl)cc2)c(O)c1C=Nc1ccc(N2CCOCC2)cc1,-1.5,-16.3%,-18.2,-13.2,-2.3,u
OC(CCNCCc1c[nH]c2ccccc12)C(F)(F)Cl (centres undefined),3.0,0.8%,4.7,9.4,-4.4,16.7%[15.4 µM]
Cc1ccnc(-n2c(-c3ccccc3)nc3ccccc3c2=O)c1,-10.5,-9.2%,-1.9,-1.4,-0.4,6.7%
C/C(CC(c1ccccc1)c1c(O)c2ccccc2oc1=O)=N\Nc1ccc([N+](=O)[O-])cc1[N+](=O)[O-] (centres undefined),-10.0,-17.2%,-28.9,u,10.9,-20.3%
CC1CCC(NC(=O)c2cc3c(=O)n(C)c4ccccc4c3n2C)CC1 (centres undefined),-2.8,1.5%,-5.6,-7.4,0.8,-9.1%
O=C(NC1CC1)C1CSC(c2cccnc2)=N1 (centres undefined),-4.8,4.1%,7.5,1.5,-2.9,-0.3%
C/C=C(\C)C(=O)N[C@@H](c1ccccc1)[C@@H](O)C(=O)O[C@H]1C[C@@]2(O)[C@@H](OC(=O)c3ccccc3)C3[C@](C)(C(=O)[C@H](OC(C)=O)C(=C1C)C2(C)C)[C@@H](O)C[C@H]1OC[C@@]31OC(C)=O (some centres undefined),-27.7,4.1%,-26.0,2.2,-4.6,x
CCc1ccc(OCCCN=C(C)c2c(O)n(C)c(=O)n(C)c2=O)cc1,-7.5,u,5.4,8.1,-0.1,-1.7%
NC(=S)N/N=C/c1coc2ccccc2c1=O,2.4,-13.4%,-18.4,-11.6,-1.3,-6.6%
CC(C)(C)C(=O)Nc1ccc(S(=O)(=O)N2CC3CC(C2)c2cccc(=O)n2C3)cc1 (centres undefined),-4.0,4.9%,7.9,0.8,0.0,-25.1%
COc1ccc(C2=NS(=O)(=O)N(C)C(C(=O)N3CCC4(CC3)OCCO4)=C2)cc1OC,-4.5,-0.9%,3.2,0.7,0.0,u
c1ccc2c(c1)CN(Cc1ccc3c(c1)OCO3)Cc1cnnn1-2,-5.9,x,0.0,-14.0,-0.3,-7.2%
Cc1ccc2c(c1)Oc1ccccc1N=C2,-10.8,x,-11.5,16.5,-5.8,5.4%
O=C(NCC(c1cccnc1)N1CCN(c2ccccc2F)CC1)Oc1ccccc1 (centres undefined),9.4,-0.5%,-0.6,-2.6,3.0,16.7%
Cn1cccc1/C=C1\C(=O)NC(=O)N(Cc2ccco2)C1=O,-1.1,-20.4%,-1.9,-18.8,4.8,26.9%
COC(=O)C1=C(c2ccccc2OCc2ccccc2)C[C@@H]2CC[C@H]1N2C(=O)NCCOc1ccccc1,-12.2,-12.8%,-6.0,-4.8,-5.0,-39.9%
COC(=O)C1=C(c2ccc(F)cc2OCc2ccccc2)C[C@@H]2CC[C@H]1N2C(=O)NCCOc1ccc(OC)cc1,-20.2,-16.7%,-18.6,-21.0,1.0,-21.1%
CCc1ccc(-c2nn(Cc3ccccc3)cc2C=O)cc1,0.2,-8.5%,15.9,8.1,-6.8,0.1%[15.4 µM]
C[C@]12CCC3C(CCC4=C/C(=N/OCC(=O)NC(CCC(N)=O)C(=O)O)CC[C@@]43C)C1CCC2O (some centres undefined),-0.5,3.2%,x,2.4,2.9,-22.0%
COc1cc(OC)cc(C(=O)Nc2ccc(Br)cc2C(=O)c2ccccc2)c1,8.6,-0.3%,1.1,-2.0,-1.7,-16.1%
O=C1C2CCCN2C(c2cccs2)N1c1ccccn1 (centres undefined),-6.9,12.9%,0.0,-0.1,-2.2,-5.1%
C[C@]12CC[C@H](O)C[C@@H]1CC[C@@H]1[C@@H]2CC[C@]2(C)[C@@H](C(=O)O)C[C@@H]12,-4.6,-9.6%,x,1.5,1.1,-22.5%
O=C(NCCc1ccccc1)[C@@H]1CC=C[C@@H]2CCN(Cc3ccc(Cl)c(Cl)c3)C(=O)[C@@H]21,-4.0,u,0.1,-1.4,-2.4,x
C[C@@H]1CCC2[C@@H](C)C(=O)O[C@@H]3OC4(C)CCC1[C@@]23OO4 (some centres undefined),u,-6.5%,x,9.6,u,-17.2%
CN1C(=O)C(=Cc2cccnc2)C(=O)N(C)C1=O,0.2,-15.8%,0.1,-18.4,-5.2,11.3%[15.4 µM]
O=C1NC(=O)C(CCc2ccccn2)(Cc2cccc(Cl)c2Cl)C(=O)N1c1ccc(Br)cc1 (centres undefined),-14.6,-16.1%,-8.9,2.9,-2.9,-41.8%
CCCc1cc(=O)oc2cc(OCC(=O)N3CCC(C(=O)O)(c4ccccc4)CC3)ccc12,-1.2,1.8%,-15.1,-14.2,2.1,x
CC(ON1CC1(C(F)(F)F)C(F)(F)F)(C(N)=O)C(N)=O (centres undefined),5.7,1.9%,1.8,1.3,-3.5,-19.0%
CCOC(=O)COc1ccc2c(c1)c(C(C)=O)c(C)n2Cc1ccccc1,2.8,4.6%,3.5,0.2,-0.4,-8.6%[15.4 µM]
O=c1c2ccccc2nc(/C=C/c2ccccc2)n1-c1ccc(O)cc1,8.1,-21.7%,-18.8,-2.9,0.1,-4.6%
COCc1cc(C2SCC(=O)Nc3c2c(=O)[nH]n3C(C)C)ccc1OC (centres undefined),-37.0,5.7%,0.3,28.7,-4.6,u
O=C(C1CC(c2ccccc2O)=NO1)N1CCC2(CC1)OCCO2 (centres undefined),-1.5,4.4%,-1.4,-0.6,-2.8,7.6%
# Other records follow.
SMILES,D2 PAM,gsp antag,CtBP-E1A blk,Six1-Eya2 blk,D2 ag,gsp ag
CCN1CCN(C(=O)Cc2c(C)n(C(=O)c3ccc(Cl)cc3)c3ccc(OC)cc23)CC1,-17.8,-4.5%,0.9,-8.1,2.1,19.7%
Cc1ccc(NC(=O)OC(C)CNC(=O)Oc2cccc(C)c2)cc1 (centres undefined),-46.1,-0.1%,x,3.3,-2.4,-4.4%
CCN(CC)C(=O)c1ccc(NC(=O)COc2ccc([N+](=O)[O-])cc2Cl)cc1,5.6,-5.8%,30.3,20.5,-1.2,7.4%
CC(C)Sc1nnc(OC(=O)N(C)C)n1-c1ccccc1,6.3,3.4%,-0.6,29.4,-5.0,-12.2%[15.4 µM]
COc1nc2ccccc2c(=O)n1-c1ccc(C)cc1,-15.7,-7.2%,1.6,2.1,-2.7,12.2%[15.4 µM]
CCN(CC)CCNC(=O)c1c(O)c2ccccc2n(Cc2ccccc2)c1=O,-46.7,14.1%,-6.5,-1.4,-7.7,5.9%
ClCCN(CCCl)c1ccc(C=Cc2ccncn2)cc1,-1.1,1.5%,47.6,54.8,5.3,33.5%
CSCCC(c1nnnn1-c1c(C)cccc1C)N1CCC2(CC1)C(=O)NCN2c1ccccc1 (centres undefined),-15.5,x,0.0,-8.6,-3.3,x
Cc1ccccc1-n1c(O)c(C=Nc2ccc3c(c2)OCO3)c(=O)[nH]c1=O,-5.9,-10.3%,4.6,0.0,-2.2,-16.8%
Cc1cc(C)cc(OCCOc2cccc(C=C3C(=O)NC(=O)NC3=O)c2)c1,-11.9,-0.6%,35.3,15.0,-5.0,-25.3%

# Entries of single compounds, looked up by structure.
# COC(=O)C1=C(c2ccc(F)cc2OCc2ccccc2)C[C@@H]2CC[C@H]1N2C(=O)NCCOc1ccc(OC)cc1 reads D2 PAM: -20.2; gsp antag: -16.7%; CtBP-E1A blk: -18.6; Six1-Eya2 blk: -21.0; D2 ag: 1.0; gsp ag: -21.1%
# CCc1ccc(-n2c(O)c(/C=N/NC(=O)c3ccncc3)c(=O)[nH]c2=O)cc1 reads D2 PAM: 15.0; gsp antag: 4.3%; CtBP-E1A blk: u; Six1-Eya2 blk: u; D2 ag: 5.7; gsp ag: -49.6%[inhibitor]

# Screens (PubChem BioAssay)
